PMP22 txn prim – modulates PMP22 transcription in S16 Schwann cells. S16 Pmp22-F2sN Schwann cells (luciferase reporters placed in the Pmp22 gene), FLuc/NLuc coincidence luminescence, 24 h. Potency, µM (titrated, usually from 57.5 µM), for inactives: at the highest dose activity change, negative = inhibition, usual class: inhibitors. 43,000 compounds, 2% hits. AID 1508649; active = clear falling dose curves in both reporters; inconclusive = both reporters move, but less clearly or upward; inactive = either reporter flat; the % is the NLuc reporter signal; further: on the % scale 0 is the no-effect control and ±100 the full control effect; some results filed as inactive show a strong effect at the top dose
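Schwann cells carrying the coincidence reporter were exposed to library compounds for 24 h at 37C, then lysed and read for FLuc and, after quenching, NLuc luminescence on a CCD imager.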
HTT promoter inh – inhibitors of huntingtin promoter activity | Potency, µM (doses to about 57.5 µM), for the others: at the highest dose activity change, negative = inhibition, usual class: inhibitors | AID 1508623 | 48,000 compounds, 0.93% hits | HEK293 HTT promoter firefly luciferase reporter (activity 0% = vehicle and -100% = no light), 24 h; active means well fitted inhibition curve with a large enough effect; inconclusive means small, poorly fitted or top-dose-only effect; inactive means no such curve, though single readings can be large or run the other way; further: nearly all actives have a fitted effect of over 50% in size
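HEK293 Fluc reporter, 2,500 cells/well, 24 h pre-culture; cpds up to 57.5 uM final, 24 h 37 degrees C; Dual-Glo, 10 min RT; normalized vehicle = 0%, zero RLU = -100%.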
Numbers without * were called inactive; ? = inconclusive; . = not tested or not shown; & = joins results of further samples; [ ] = remark or other dose. Potency means the concentration at half of the fitted maximal effect.

SMILES	PMP22 txn prim	HTT promoter inh
COc1ccccc1NC(=O)CN1C(=O)C2(SCC(=O)N2c2ccc(C)c(C)c2)c2ccccc21 (stereo not given)	?	?
Cc1cccc(NC(=O)CCS(=O)(=O)c2cc(Br)cc3c2N(C(=O)C2CC2)CC3)c1C	2%	-12%
CCOc1ccc(CCn2c3c(c(=O)[nH]c2=O)C(NC(=O)c2cccc(F)c2)(C(F)(F)F)C(=O)N3)cc1OCC (stereo not given)	-5%	-8%
O=C(Nc1noc2ccccc12)c1c(F)cccc1F	-10%	24%
Cc1ccc(CNC(=O)c2nc(-c3ccc(Cl)cc3)n3c2CCCCC3)cc1	?	?
CC(C)COc1ccc(C(=O)N(Cc2cccc(F)c2)C2CCS(=O)(=O)C2)cc1 (stereo not given)	-8%	-7%
COc1cccc(NS(=O)(=O)c2ccc3[nH]cc(C(=O)NCCc4ccc(C)cc4)c(=O)c3c2)c1	?	?
O=C(c1ccc2c(c1)N(Cc1ccc(Cl)cc1)C(=O)c1ccccc1S2=O)N1CCN(c2ccccc2F)CC1 (stereo not given)	?	?
CC(=O)O[C@H]1C(=O)[C@@]2(C)C([C@H](OC(=O)c3ccccc3)[C@]3(O)C[C@H](OC(=O)[C@H](O)[C@@H](NC(=O)c4ccccc4)c4ccccc4)C(C)=C1C3(C)C)[C@]1(OC(C)=O)CO[C@@H]1C[C@@H]2O (stereo not given in full)	.	-18%
COc1ccc(-c2cn3c(n2)sc2cc(C(=O)NCC(C)c4ccccc4)ccc23)cc1 (stereo not given)	3%	5%
COc1ccc(Cn2ccc3nc(C)c(C(=O)Nc4ccc(OC)cc4)cc3c2=O)cc1	-10%	-29%
COc1ccc(CCNC(=O)CSc2n[nH]c(-c3ccccc3Cl)n2)cc1OC	-18%	-10%
COc1ccc(S(=O)(=O)N(CCc2ccccc2)CC(=O)Nc2cc(C)ccc2C)cc1	?	?
O=[N+]([O-])c1cn2c(n1)OC[C@@H](OCc1ccc(OC(F)(F)F)cc1)C2	.	-9%
COc1ccc(CNC(=O)c2cccc(N3CCCS3(=O)=O)c2)cc1	-10%	-32%
CC(=O)c1ccc(NC(=O)CSc2nnc3ccc(-c4ccc(F)cc4)nn23)cc1	?	-2%
CCc1ccc(C2CC(=O)Nc3c2c(=O)nc2c(C)cccn32)cc1 (stereo not given)	31%	-7%
COCCNC(=O)Cn1c(=O)n(CCCCCC(=O)Nc2ccccc2)c(=O)c2sccc21	-34%	18%
COc1ccc(-c2noc(N3CCC(C(=O)Nc4ccc(F)cc4Cl)CC3)n2)cc1	-3%	1.8µM*
CSc1cccc(NC(=O)Cn2c3ncccc3c(=O)n2-c2ccc(C)cc2)c1	7%	-2%
CCN(C(=O)Cn1c(=O)oc2cc(S(=O)(=O)N3CCCCC3)ccc21)c1ccccc1	-16%	-5%
CCOC(=O)c1ccccc1NC(=O)c1sc2ccccc2c1Cl	-8%	-11%[11.5 µM]
COc1ccc(OC)c(CCNC(=O)C(C)n2c(C)c3cnn(-c4ccccc4)c(=O)c3c2C)c1 (stereo not given)	-7%	-12%
Cc1ccccc1NC(=O)c1c(C)oc2ccc(O)c(CN3CCCCCC3)c12	?	-28%

Quoted from the listing (3 entries):
SMILES	PMP22 txn prim	HTT promoter inh
COc1ccc(S(=O)(=O)N(CCc2ccccc2)CC(=O)Nc2cc(C)ccc2C)cc1	?	?
O=[N+]([O-])c1cn2c(n1)OC[C@@H](OCc1ccc(OC(F)(F)F)cc1)C2	.	-9%
COc1ccc(CNC(=O)c2cccc(N3CCCS3(=O)=O)c2)cc1	-10%	-32%

Continued.
SMILES	PMP22 txn prim	HTT promoter inh
CCN(c1ccc(Cl)cc1)S(=O)(=O)c1nnc(NC(=O)c2ccccc2C)s1	2%	?
COc1ccccc1CNC(=O)CSc1nnc(C)c2c(C)n(-c3ccccc3)nc12	15µM*	?
CC(=O)Nc1ccccc1-c1nc2ccccc2n(CC(=O)Nc2cccc(C(F)(F)F)c2)c1=O	4%	-25%
CCc1ccc2oc(-c3ccc(NC(=O)c4cc5ccccc5o4)cc3)nc2c1	?	13%
CCc1ccc(NC(=O)c2sc3nc(C)cc(C)c3c2NC(=O)c2ccccc2)cc1	?	21%
O=C(NCCCN1CCN(c2ccccc2F)CC1)c1nnc(Cc2ccc(Cl)cc2Cl)o1	?	?
CCOC(=O)N1CCc2c(sc(NCc3ccc(N(C)C)cc3)c2C(=O)Nc2ccccc2OCC)C1	?	?
Cc1ccc(NS(=O)(=O)c2ccc3[nH]c4c(c3c2)CCCCCC4)cc1	?	?
COc1ccc(CN2COc3ccc4c(-c5ccccc5)cc(=O)oc4c3C2)cc1	-15%	-11%
COc1ccc2nc3cc(Cl)ccc3c(Nc3cc(CN4CCCC4)c(O)c(CN4CCCC4)c3)c2n1	.	9%
Cc1ccc2c(c1)c1c(c(=O)n(-c3ccccc3C)c(=O)n1Cc1ccccc1F)n2C	0%	-18%
COc1ccc(-c2nsc(NC(=O)c3oc4ccc(Cl)cc4c3C)n2)cc1	-9%	-3%
COc1ccc(NC(=O)CSc2nc3ccccc3nc2Cc2ccc(C)cc2)cc1Cl	?	-5%
CC(C)CC(NC(=O)C1CCC(C)CC1)C(=O)OCC(=O)c1ccc(Cl)cc1 (stereo not given)	2%	-28%
O=S(=O)(c1ccc(-n2cnnn2)cc1)N1CCN(c2cccc(C(F)(F)F)c2)CC1	?	-7%
Cc1cc(C)cc(NC(=O)Nc2ccc3nc(N4CCN(C)CC4)cc(C)c3c2)c1	?	4%
CCOc1ccc(C(=O)Nc2ccc(-n3nncc3-c3ccc(OC)cc3)cc2)cc1	16%	?
O=C(NCCCN1CCN(c2ccc(F)cc2)CC1)C1COc2ccccc2C1 (stereo not given)	-30%	-31%
COc1ccc(NC(=O)C(C)N2Cc3ccccc3C2=O)cc1OC (stereo not given)	0%	-7%
CCOc1ccccc1CNC(=O)c1cnc2sc(N(CC)CC)nn2c1=O	?	1%
CC(C)OCCCNC(=O)c1ccc2c(=O)n(CCc3ccccc3)c(=O)[nH]c2c1	-11%	7%
CCc1ccccc1NC(=O)N1CCC2(CC1)Oc1ccccc1C(=O)N2Cc1ccccc1F	-6%	-13%
Cc1ccccc1CNC(=O)c1ccc2[nH]c(C)c(C)c2c1	-1%	3%
O=C(COc1ccccc1F)Nc1ccc2nc(SCC(=O)N3CCOCC3)sc2c1	-40%	-28%

Entries of single compounds, quoted from the list. Order of values: PMP22 txn prim	HTT promoter inh
`O=C(NCCCN1CCN(c2ccc(F)cc2)CC1)C1COc2ccccc2C1` (stereo not given) is listed as -30%	-31%
`CC(C)OCCCNC(=O)c1ccc2c(=O)n(CCc3ccccc3)c(=O)[nH]c2c1` is listed as -11%	7%
`O=C(COc1ccccc1F)Nc1ccc2nc(SCC(=O)N3CCOCC3)sc2c1` is listed as -40%	-28%
`Cc1ccccc1CNC(=O)c1ccc2[nH]c(C)c(C)c2c1` is listed as -1%	3%
`Cc1cc(C)cc(NC(=O)Nc2ccc3nc(N4CCN(C)CC4)cc(C)c3c2)c1` is listed as ?	4%

(list continues)
SMILES	PMP22 txn prim	HTT promoter inh
Cc1cc(C)c(NC(=O)CCC(=O)N2Cc3ccccc3Oc3ncccc32)c(C)c1	-14%	-15%
O=C1c2ccccc2-c2n[nH]c3cccc1c23	.	9%
O=C(NC1CC(=O)N(c2cccc(F)c2)C1)c1ccc(S(=O)(=O)N2CCOCC2)cc1 (stereo not given)	-3%	-1%
Oc1ccccc1-c1nc(/C=C/c2ccccc2Cl)no1	?	15%
CCc1cc2c(-c3ccccc3)cc(=O)oc2c2c1OCN(Cc1ccc(C)cc1)C2	-19%	-13%
Cn1c(=O)oc2cc(S(=O)(=O)N3CCCC(C(=O)NCc4ccc(F)cc4)C3)ccc21 (stereo not given)	-9%	?
Cc1cc(C)c(NC(=O)Cn2c(=O)n(Cc3ccco3)c(=O)c3ccc(C(=O)NC4CCCC4)cc32)c(C)c1	5µM*	-8%
O=C(CCNS(=O)(=O)c1ccc2c(c1)CCCC(=O)N2)NCc1ccccc1Cl	-28%	-19%
O=C(NC1CCCC1)c1ccc2c(c1)N(Cc1ccccc1)C(=O)c1ccccc1S2	-9%	-18%
O=C(CCc1nc(CN2CCN(S(=O)(=O)c3ccc(Br)cc3)CC2)no1)N1CCCCC1	-1%	-25%
CCOc1ccc(NC(=O)c2cc3c(n(-c4ccc(OC)cc4)c2=O)CC(C)(C)CC3=O)cc1	-7%	-9%
COc1ccc(NC(=O)c2c(NCc3ccc(OC)c(OC)c3OC)sc3c2CCC3)c(OC)c1	-20%	-16%
COc1ccc(Cl)cc1NC(=O)c1sc2nc3c(cc2c1N)CN(C)CC3	-7%	-7%
COc1ccc(-c2c(C)c3cc(OC(=O)N4CCOCC4)ccc3oc2=O)cc1OC	14%	-20%
Cc1c(C(=O)Nc2cccc(Cl)c2)oc2ccc(S(=O)(=O)N3CCCCCC3)cc12	-1%	-25%
CC(C)CC(=O)Nc1ccc2nc(SCC(=O)N3CCc4ccccc43)sc2c1	-27%	?
Cc1c(CNCCCc2ccccc2)c(C(=O)O)c(C)n1Cc1ccc(Cl)cc1	?	-25%
Cc1ccc2c(c1)c1c(c(=O)n(-c3ccccc3)c(=O)n1CC(=O)c1ccc(Cl)cc1)n2C	4%	-15%
COc1ccc(C2(CNC(=O)C(=O)Nc3ccc(F)cc3)CCCC2)cc1OC	?	-21%
COc1cc(C(=O)N2CCN(C(=O)COc3cccc(C)c3)CC2)cc(OC)c1OC	-6%	2%
Cc1ccc2c(c1)-c1ncc(C(=O)c3ccccc3O)cc1CO2	-3%	12%
Cc1cccc(C(=O)Nc2ccccc2OCc2cc(=O)n3cc(C)ccc3n2)c1	-2%	2%
CC(C)(C)Cn1c(N)nc2ccc(-c3[nH]c(C(C)(C)C)nc3-c3ccc(F)cc3)nc21	.	?
CCOc1ccc(N(C(=O)c2ccc(C)cc2)S(=O)(=O)c2ccc3c(c2)n(C)c(=O)n3C)cc1	2%	0%
Cc1ccc(/C=C/c2onc(C)c2S(=O)(=O)N2CCC(C(=O)N3CCN(c4cccc(C)c4)C(C)C3)CC2)cc1 (stereo not given)	-28%	-25%
Cc1ccc(N(C)S(=O)(=O)c2ccc(-c3coc(C)n3)cc2)cc1	-22%	-12%
Cc1cccc(Cn2c(=O)n(CC3CCC(C(=O)N4CCC(C)CC4)CC3)c(=O)c3sccc32)c1 (stereo not given)	?	0%
Cc1cccc(S(=O)(=O)c2cn(Cc3ccccc3)c3cc(N4CCCC(C)C4)c(F)cc3c2=O)c1 (stereo not given)	8%	-24%
CCOC(=O)c1ccc(NC(=O)C2CCCN(c3ncnc4onc(C)c34)C2)cc1 (stereo not given)	4%	?
Cc1ccccc1Cn1c(=O)n(CCc2ccccc2)c(=O)c2sc3ccccc3c21	-17%	36%[activator]
COc1cccc(CNC(=O)c2sc3nc4n(c(=O)c3c2C)CCC4)c1	-3%	25%
O=C(COc1ccc(Cl)cc1Cl)Nc1ccc(C(=O)OC2CCCCC2)cc1	-14%	-8%
N[C@@H](Cc1cc(I)c(Oc2cc(I)c(O)c(I)c2)c(I)c1)C(=O)O	.	-2%&2%
COCCNC(=O)C(=O)NCC(c1cccnc1)N1CCN(c2ccccc2)CC1 (stereo not given)	18%	-23%
COc1ccc(NC(=O)c2oc3ccccc3c2NC(=O)Cc2coc3c(C)c(C)ccc23)cc1	-17%	-7%
CC(=O)Nc1cccc(-c2nc(-c3ccccc3)no2)c1	-24%	56%[activator]
Cc1cccc(CSc2nc3cccnc3n2Cc2ccc(C(=O)NCc3cccs3)cc2)c1	-33%	?
O=C(Nc1ccc(C(=O)N2CCN(c3cccc(Cl)c3)CC2)cc1)c1nsc2ccccc12	?	?
CCOc1ccc(NC(=O)C(=O)NCCc2csc(-c3ccc(F)cc3)n2)cc1	-11%	-8%
CCOc1ccc(-n2c(SCC(=O)Nc3ccc4c(c3)OCCO4)nc3c([nH]c4ccccc43)c2=O)cc1	-7%	-5%
CCN(CC)CCn1c(=N)n(CC(O)COc2ccccc2C)c2ccccc21 (stereo not given)	?	?
CCCCC(CC)CNC(=O)CN1C(=O)CSc2ccc(S(=O)(=O)N3CCOCC3)cc21 (stereo not given)	-7%	-19%
COC(=O)c1c(-c2cccs2)csc1NC(=O)c1ccc(C(C)C)cc1	-43%	0%
COc1ccc(-c2cc(C(=O)Oc3ccc(Cl)cc3)c3ccccc3n2)cc1	-35%	26%

Bioassay records: PubChem BioAssay, National Center for Advancing Translational Sciences (NCATS)

No enrichment for hits. Share with any hit: about 2.4%.
